miR-21 reporter: miR-21 reporter, rising signal | 340,000 tested, under 10 active | Potency, µM (series often up to 38.3 µM), without a hit: at the highest dose reporter change, positive = more light | HeLa miR-21 FLuc reporter, luciferase, 48 h; active = well fitted rising curve with a large enough effect; inconclusive = small, poorly fitted or top-dose-only effect; inactive = no such curve, though single readings can be large or run the other way;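 note: % of control where 0% means no effect; miR-21 action dims this reporter so a rising signal means less miR-21 action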
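HeLa cells endogenously expressing miR-21, stably carrying CMV-driven firefly luciferase with a downstream miR-21 binding site, 2000 cells/well. Titrations up to approximately 40 uM, 48 hours; luciferase luminescence read.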
Rango complex inh: Rango-importin beta binding inhibition; Potency, µM (highest dose often 92.2 µM), for the others: top-dose inhibition of complex formation; Rango CFP/YFP FRET sensor + importin beta, 45 min; Q14974; hit rate 0.031% among 340,000; active = rising FRET ratio curve, often small or poorly fitted; inconclusive = mostly compound fluorescence or quenching in the first reads; inactive = flat curves in all reads;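 note: potency is the fitted concentration of half-maximal effect; 0% = DMSO wells and 100% = buffer wells lacking importin beta; nearly all actives have a fitted effect of over 15% in size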
Target sequence (Q14974 whole entry, looked up): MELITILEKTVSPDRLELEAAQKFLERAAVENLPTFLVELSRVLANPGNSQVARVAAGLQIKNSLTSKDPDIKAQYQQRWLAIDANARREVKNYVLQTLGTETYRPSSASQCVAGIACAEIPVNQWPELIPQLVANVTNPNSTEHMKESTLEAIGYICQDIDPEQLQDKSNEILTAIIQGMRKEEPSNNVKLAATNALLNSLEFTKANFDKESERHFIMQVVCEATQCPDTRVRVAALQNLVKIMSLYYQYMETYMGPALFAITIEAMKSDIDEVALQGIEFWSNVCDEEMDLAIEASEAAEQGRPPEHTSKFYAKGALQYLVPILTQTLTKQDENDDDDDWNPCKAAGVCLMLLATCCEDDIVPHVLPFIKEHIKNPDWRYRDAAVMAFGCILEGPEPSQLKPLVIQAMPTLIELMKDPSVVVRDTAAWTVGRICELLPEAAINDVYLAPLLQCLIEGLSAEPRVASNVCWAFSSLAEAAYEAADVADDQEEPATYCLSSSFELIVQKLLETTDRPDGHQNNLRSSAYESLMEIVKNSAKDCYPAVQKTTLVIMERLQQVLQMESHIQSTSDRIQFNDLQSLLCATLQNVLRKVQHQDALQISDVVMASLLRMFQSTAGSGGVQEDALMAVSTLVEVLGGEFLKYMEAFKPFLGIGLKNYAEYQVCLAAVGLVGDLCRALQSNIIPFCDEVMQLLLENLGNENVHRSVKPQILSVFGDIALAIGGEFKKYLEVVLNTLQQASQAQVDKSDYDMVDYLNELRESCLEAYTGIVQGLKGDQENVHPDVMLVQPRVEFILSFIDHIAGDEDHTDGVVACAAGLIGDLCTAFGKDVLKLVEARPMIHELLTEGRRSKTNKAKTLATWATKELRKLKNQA
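Inhibition scored from the CFP 486 nm/YFP 530 nm FRET ratio 45 min after adding 0.125 microM importin beta to 50 nM Rango biosensor preincubated 5 min with compound (room temperature, PBS with DTT, Tween-20, BSA). No-importin wells as positive control.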
GLA inh pH 4.5: blocks human alpha-galactosidase A at pH 4.5; P06280; purified enzyme, 4-MU-alpha-Gal fluorescence, pH 4.5; activity change, negative = inhibition, % at 105 µM; 230,000 tested, under 10 active; AID 1467; inconclusive = small, poorly fitted or top-dose-only inhibition, or a rising curve; inactive = flat fitted curve, though single readings scatter; no compound was filed as active;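 note: 0% = full activity with enzyme and -100% = basal without enzyme; dose as in the result columns while the protocol names 77 µM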
Rango release inh: inhibitors of RanGTP-induced Rango-importin beta complex dissociation | O95149+P62826 | Biochemical FRET Rango-importin beta, RanGTP-induced dissociation | Potency, µM (titrated, usually from 46.1 µM), without a hit: at the top dose activity change, negative = inhibition | hit rate 0.071% among 340,000 | AID 540253; active means falling FRET ratio curve, often poorly fitted, with flat reads before Ran was added; inconclusive means other falling curves, or compound fluorescence or quenching; inactive means flat or rising ratio curve;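 note: potency is the fitted concentration of half-maximal effect; % of control where 0% means no effect; nearly all actives have a fitted effect of over 45% in size; -100% = wells without RanGTP and RCC1; the record marks most hits as doubtful in a second field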
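Compounds sat 5 min at room temperature with 0.1 uM Rango biosensor plus 0.25 uM importin beta, then FRET pre-read. RanGTP-RCC1 (0.6 uM Ran, 2mM GTP, 0.2 uM RCC1) added for 45 min, and the CFP/YFP post-read measured blocked complex dissociation.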
Starred values were filed as active, the others as inactive; ? = inconclusive; . = not tested or not shown; & = joins results of further samples.

SMILES | miR-21 reporter | Rango complex inh | GLA inh pH 4.5 | Rango release inh
COc1cc(/C=C2\SC(=O)NC2=O)ccc1Oc1cnccn1 | -33% | 0.9% | -10 | 5%
O=C(CCl)N(CCc1ccccc1)CCc1ccccc1 | ? | 0.9% | . | -3%
CC1CCCCC1NC(=O)C1CCN(C(=O)c2sccc2-n2cccc2)CC1 (centres undefined) | 3% | -4.2% | 1 | 1%
O=C(Cn1ccc(C(F)(F)F)n1)N/N=C/c1ccc2c(c1)OCO2 | -22% | 5.6% | -8 | 3%
Cc1ccc(-c2csc(/C=C3\SC(C)C(=O)N3CC(=O)Nc3ccccc3F)n2)cc1 (centres undefined) | 0% | 1.0% | 1 | 6%
Cc1ccc(NC(=O)Cn2c(=O)c3cccn3c3ccccc32)cc1 | 2% | -2.8% | . | -3%
CCCn1c(SCC(=O)NCCc2ccccc2)nnc1-c1cccnc1 | -1% | -1.0% | -5 | -5%
O=C(Nc1nccs1)c1ccc(Br)o1 | -42% | -0.8% | -1 | -15%
C=CCn1cnc2scc(-c3ccccc3)c2c1=O | -12% | 0.9% | 3 | 1%
CCOCCCNS(=O)(=O)c1ccc2c(c1)oc(=O)n2CC(=O)OCC | 0% | -1.4% | 8 | 17%
COc1ccccc1Cn1c(C(C)C)nc2ccccc21 | -1% | -2.8% | -14 | -6%
CCN(C(=O)CSc1nc2cc(Cl)ccc2c(=O)n1CC(C)C)C1CCS(=O)(=O)C1 (centres undefined) | . | 6.0% | . | -10%
CCCCC1=CC2=CC(=O)C(C)(OC(=O)C3CCCC3)C(=O)C2=CO1 (centres undefined) | 1% | ? | -2&-1 | ?
CS(=O)(=O)N1CCN(c2ccc(NC(=O)CSc3ccc(Cl)cc3)cc2)CC1 | 2% | 2.0% | 1 | -1%
CCOc1ccc(NC(=O)CN(c2ccc(OCC)cc2)S(=O)(=O)c2c(C)[nH]c(=O)[nH]c2=O)cc1 | -1% | -2.4% | 1 | -16%
CCCN(CCC)CCCNC(=O)c1cc2c(-c3ccc(OC)c(OC)c3)nn(C)c2s1 | -17%&-12% | -0.6% | . | 14%
C/C=C/C(=O)N1CC2(CC(c3cccc(NC(=O)CC)c3)=NO2)C[C@H]1C(N)=O (some centres undefined) | 10% | 1.6% | 1 | 24%
NC(=O)c1cc(C(N)=O)nc(Cl)n1 | 2% | -2.3% | 0 | -12%
Cc1cc(C(=O)COC(=O)Cc2ccc(Br)cc2)c(C)n1C | . | 0.7% | . | 0%
CC(Oc1ccc(F)cc1)C(=O)Nc1cc(S(=O)(=O)N2CCCCC2)ccc1N1CCOCC1 (centres undefined) | . | -0.2% | . | -4%
COc1ccc(/C=N/OCC(=O)Nc2ccc3c(c2)OCO3)c(OC)c1 | -4% | 0.3% | -2 | 0%
CC1CCC/C(=C\Nc2ccc(O)cc2)C1=O (centres undefined) | -62% | 0.3% | 1 | -27%
CCN(CC1COc2ccccc2O1)C(=O)CN1C(=O)NC(C)(c2ccccc2)C1=O (centres undefined) | . | -4.9% | . | 12%
COCCNC(=O)C(c1ccccc1)N(CCOC)C(=O)Cn1nnc2ccccc21 (centres undefined) | 1% | 0.1% | -24 | 3%
C=CCc1c(C)nc2c(OC)cccc2c1Cl | -28% | -0.1% | 3 | -10%
COCCn1c(SCc2ccc(OC)c(F)c2)nc2ccccc2c1=O | -22% | -2.4% | -6 | -7%
CCC1(C)NC(=O)N(CC(=O)c2cc(C)n(C3CC3)c2C)C1=O (centres undefined) | . | 0.1% | . | 3%
Cc1ccc(S(=O)(=O)N2CCN(C(=O)CC3CCCC3)CC2)cc1 | -1% | -4.4% | -8 | -3%
CCc1ccc2nc(N(CCCN(C)C)C(=O)c3ccc(S(=O)(=O)N4CCCc5ccccc54)cc3)sc2c1 | 13% | -0.7% | . | -4%
CCOC(=O)C1=C(c2ccccc2)N(C)C(=O)NC1c1ccc(OC(F)F)c(OC)c1 (centres undefined) | -5% | 1.5% | 2 | -4%

Already shown: entries from further up.
SMILES | miR-21 reporter | Rango complex inh | GLA inh pH 4.5 | Rango release inh
COCCNC(=O)C(c1ccccc1)N(CCOC)C(=O)Cn1nnc2ccccc21 (centres undefined) | 1% | 0.1% | -24 | 3%
C=CCc1c(C)nc2c(OC)cccc2c1Cl | -28% | -0.1% | 3 | -10%
COCCn1c(SCc2ccc(OC)c(F)c2)nc2ccccc2c1=O | -22% | -2.4% | -6 | -7%
CCC1(C)NC(=O)N(CC(=O)c2cc(C)n(C3CC3)c2C)C1=O (centres undefined) | . | 0.1% | . | 3%
Cc1ccc(S(=O)(=O)N2CCN(C(=O)CC3CCCC3)CC2)cc1 | -1% | -4.4% | -8 | -3%
CCc1ccc2nc(N(CCCN(C)C)C(=O)c3ccc(S(=O)(=O)N4CCCc5ccccc54)cc3)sc2c1 | 13% | -0.7% | . | -4%
CCOC(=O)C1=C(c2ccccc2)N(C)C(=O)NC1c1ccc(OC(F)F)c(OC)c1 (centres undefined) | -5% | 1.5% | 2 | -4%

(cont.)
SMILES | miR-21 reporter | Rango complex inh | GLA inh pH 4.5 | Rango release inh
Cc1ccc(Cc2cnc(NC(=O)c3cccs3)s2)cc1 | -15% | -1.6% | 6 | -2%
COc1ccc(N2N=NN(C(C)C)C2=C(Cl)c2nnnn2-c2ccc(OC)cc2)cc1 | . | 0.1% | . | 1%
COc1ccc(S(=O)(=O)N2CCc3ccccc32)cc1C(=O)O | 0% | 1.1% | . | -14%
COc1cc(C)nc(N(C)C(C)=O)n1 | -9% | -4.2% | -3 | -12%
Cc1ccc(C(=O)NC2CCN(CC(=O)NC3CCC(C)CC3)CC2)cc1 (centres undefined) | 0% | 0.9% | . | 8%
CC(C)(C)OC(=O)N1CCN(Cc2ccc(F)c(B(O)O)c2)CC1 | . | 0.1% | . | -4%
O=C1NC(=Nc2cccc([N+](=O)[O-])c2)SC1(CO)CO | -1% | -1.4% | . | 0%
O=C(Cc1ccccc1)N(c1ccccc1)c1ccccc1 | . | 2.4% | . | 1%
COc1cccc(-c2nc(CS(=O)(=O)CC(=O)NCCC(C)C)c(C)o2)c1 | -4% | ? | 1 | 15%
COc1cc(C(=O)Oc2ccccc2/C=N/NC(=O)c2ccc(Cl)cc2)cc(OC)c1OC | 0% | 8.3% | 3 | 4%
CC(NC(=O)c1ccco1)c1nc(-c2ccccc2)no1 (centres undefined) | 0%&-1% | -2.8% | . | -1%
O=C(Nc1ccccc1Cl)c1ccccc1S(=O)(=O)c1ccccc1[N+](=O)[O-] | 0% | 0.0% | 1 | 5%
CC1(C)CC(=O)CC(C)(C)N1OC(=O)c1ccccn1 | -6% | -4.4% | 3 | -1%
Cc1cc(C)c(C#N)c(SCc2nnc(-c3ccccc3[N+](=O)[O-])o2)n1 | -66% | -4.0% | 8 | -8%
NC(=O)c1oc2ccccc2c1NC(=O)c1ccco1 | 6% | 5.9% | 4 | -11%
CCN1CCN(C(=O)c2ccc(OCC(=O)Nc3ccc(F)cc3)c(OC)c2)CC1 | -2% | 5.2% | -1 | 2%
O=C(OC(C(=O)NCc1ccc2c(c1)OCO2)c1ccncc1)c1ccc(Cl)nc1 (centres undefined) | 3% | -0.7% | -1 | 0%
COCCCNC(=O)c1c(N)n(/N=C/c2cccnc2)c2nc3ccccc3nc12 | 1% | ? | 2 | -13%
CCCCNC(=O)CSc1nnc(Cc2ccc(Cl)c(Cl)c2)c(=O)[nH]1 | 2% | 0.2% | . | -4%
CCOc1cc(/C=C2/C(=N)N3OC(C)=CC3=NC2=O)ccc1OCCOc1ccccc1 | 5% | ? | 10 | ?
CCOC(=O)Cc1nn(Cc2ccc(Cl)cc2)c(=O)c2ccccc12 | 4% | 2.2% | -2 | ?
Clc1ccc(C=NNc2ccccn2)c(Cl)c1 | . | -2.8% | . | 7%
COc1ccc(CC(NC(C)=O)C(=O)NC2CCN(c3nc(C)cc(C)c3C#N)CC2)cc1 (centres undefined) | -15% | -4.9% | 3 | -4%
COC(=O)C1=C(O)/C(=C/c2ccc(OCC(=O)Nc3ccccc3)cc2)N=C1C | -1% | ? | . | ?
CC(C)c1ccc(/C=C/C(=O)n2nnc3ccccc32)cc1 | -9% | -0.3% | 8 | 12%
C=CCn1ccc(=O)nc1SC | . | 2.2% | . | 1%
Cc1cc(C)c2cc(C)c3nnc(SCC(=O)NCc4ccc5c(c4)OCO5)n3c2c1 | 3% | -0.4% | -3 | 8%
Cc1cc(C(=O)NNC(=S)NCc2ccco2)n(C)n1 | -4% | 2.1% | 6 | 3%
O=c1c(-c2ccccc2)n[nH]c2ccccc12 | -29% | -0.5% | 4 | 20%
CC(CN1CCCC1)OC(=O)C(c1ccccc1)c1ccccc1 (centres undefined) | 4% | 4.2% | . | -14%
CCn1c(Cc2ccccc2)nnc1SCc1nc2ccccc2c(=O)[nH]1 | -1% | -3.9% | 1 | 9%
CCOC(=O)C1CCN(C(=O)c2cc(C)n(C(C)(C)C)n2)CC1 | -17% | -1.0% | -2 | 0%
COCCN(C(=O)COC(=O)CCS(=O)(=O)c1ccccc1)c1c(N)n(Cc2ccccc2)c(=O)[nH]c1=O | . | -0.5% | . | -6%
Cc1c(Cl)cccc1N1C(=O)CC(NNC(=O)c2ccc3c(c2)OCO3)C1=O (centres undefined) | . | 3.1% | . | 14%
CCOC(=O)c1c(C)c(C(=O)Nc2ccc3c(c2)OCCO3)c(C)n1C | -1% | -1.5% | 4 | -3%
Cc1ccc(S(=O)(=O)NCCC(=O)OCC(=O)NCCc2ccccc2)cc1C | . | -0.8% | . | -8%
O=C(O)COc1ccc(/C=N/NC(=O)C(O)(c2ccccc2)c2ccccc2)cc1 | -2% | -2.0% | . | 6%
O=C(COc1coc(CN2CCc3ccccc3C2)cc1=O)Nc1cccc(F)c1 | . | -3.4% | . | -8%
COc1cc(/C=N/NC(=O)c2sc(N)c(C#N)c2C)ccc1O | -23% | 0.3% | 4 | -16%
CC(=O)c1ccc(S(=O)(=O)NCC2(N3CCOCC3)CCCCC2)cc1 | . | 0.0% | . | -4%

Continued, starting with the last five of the part before.
SMILES | miR-21 reporter | Rango complex inh | GLA inh pH 4.5 | Rango release inh
Cc1ccc(S(=O)(=O)NCCC(=O)OCC(=O)NCCc2ccccc2)cc1C | . | -0.8% | . | -8%
O=C(O)COc1ccc(/C=N/NC(=O)C(O)(c2ccccc2)c2ccccc2)cc1 | -2% | -2.0% | . | 6%
O=C(COc1coc(CN2CCc3ccccc3C2)cc1=O)Nc1cccc(F)c1 | . | -3.4% | . | -8%
COc1cc(/C=N/NC(=O)c2sc(N)c(C#N)c2C)ccc1O | -23% | 0.3% | 4 | -16%
CC(=O)c1ccc(S(=O)(=O)NCC2(N3CCOCC3)CCCCC2)cc1 | . | 0.0% | . | -4%
Nc1nc(-c2ccccc2)cc(-c2ccccc2O)n1 | -27% | 4.4% | -2 | 4%
COc1ccc(CC2(C)OC(c3ccc([N+](=O)[O-])cc3)=NN2C(C)=O)cc1 (centres undefined) | 12% | 3.4% | -16 | -12%
COc1ccc(C)cc1NC(=O)NCc1ccccn1 | 1% | -1.3% | 1 | -25%
O=C(CCc1nnc(Cc2c[nH]c3ccccc23)o1)NCC1CC12CCCCC2 (centres undefined) | -18% | -2.6% | -4 | -10%
CC1OC2(C)OC(=N)C1(C#N)C(C#N)(C#N)C2c1ccccc1 (centres undefined) | -2% | ? | 5 | ?
COc1cc(C)nc(NC(=O)COc2ccc(Cl)cc2C)n1 | -5% | 2.5% | 9 | -7%
Nc1c(-c2ccccc2Cl)cnn1-c1cccc([N+](=O)[O-])c1 | -36% | -0.6% | -1 | 1%
CSc1ccccc1C(=O)OCC(=O)NC1CCS(=O)(=O)C1 (centres undefined) | -3% | -4.4% | -3 | 11%
CCOC(=O)c1nc(Nc2ccc(C)cc2)c2ccccc2n1 | 8% | -0.6% | -10 | -6%
COc1ccc2c3c([nH]c2c1)C1CC2C(CC(O)C(OC)C2CO)CN1CC3 (centres undefined) | -1% | ? | -6 | ?
CC(C)=CC(=O)OCC(=O)NC(=O)NC(C)(C)C | -6% | -1.8% | 2 | 2%

Only part of the results is shown, so the mix of outcomes need not match the whole.
